# Screens: PubChem, ICCB-Longwood Screening Facility, Harvard Medical School
# PV pol inh: poliovirus RNA polymerase inhibition; poliovirus polymerase elongation, fluorescence polarization; stronger effect = lower value; P03300; actives 0.66% (n = 150,000); % elongation, % (compound at 16.7 µg/mL); in the data active means % elongation below about 90%; further: some results filed as inactive read as strong as hits
# Target sequence (P03300 1749-2209 limits assumed): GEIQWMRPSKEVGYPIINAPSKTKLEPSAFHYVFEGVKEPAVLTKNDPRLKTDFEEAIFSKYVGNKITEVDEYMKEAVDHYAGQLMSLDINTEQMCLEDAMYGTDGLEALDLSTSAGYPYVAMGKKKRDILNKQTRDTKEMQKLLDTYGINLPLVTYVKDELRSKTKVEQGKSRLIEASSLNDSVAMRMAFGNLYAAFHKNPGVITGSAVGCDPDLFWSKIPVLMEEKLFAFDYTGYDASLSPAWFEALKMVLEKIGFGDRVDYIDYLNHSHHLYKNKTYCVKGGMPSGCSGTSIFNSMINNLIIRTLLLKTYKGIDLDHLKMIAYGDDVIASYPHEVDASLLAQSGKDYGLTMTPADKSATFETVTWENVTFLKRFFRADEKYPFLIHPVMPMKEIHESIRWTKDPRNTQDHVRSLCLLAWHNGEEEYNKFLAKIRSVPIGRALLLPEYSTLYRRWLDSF
# Mtb MenB inh: Mtb MenB enzyme inhibition. MenB enzyme assay, absorbance read-out; some hits fall short of the stated cut. inhibition, %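 (about 12 µg/mL by stock and volumes)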. actives 0.43% (n = 100,000);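 active means mean of two replicates above 30%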;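 further: 0% = no compound and 100% = wells with inactive enzyme; the first replicate is given; strong numbers were not always called active; inactives centre near -10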
# Target sequence (P9WNP5 whole entry, looked up): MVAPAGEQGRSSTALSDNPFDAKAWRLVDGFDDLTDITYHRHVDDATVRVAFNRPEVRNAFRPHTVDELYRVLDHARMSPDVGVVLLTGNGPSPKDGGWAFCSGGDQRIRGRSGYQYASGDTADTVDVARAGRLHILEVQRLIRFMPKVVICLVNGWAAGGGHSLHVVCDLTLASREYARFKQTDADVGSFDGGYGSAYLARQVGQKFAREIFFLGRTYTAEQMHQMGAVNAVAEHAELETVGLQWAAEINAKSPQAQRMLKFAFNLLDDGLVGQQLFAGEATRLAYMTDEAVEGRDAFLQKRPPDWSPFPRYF
# MbtI inh: inhibitors of Mycobacterium tuberculosis siderophore enzyme MbtI; P9WFX0; purified MbtI enzyme, fluorescence intensity read-out; actives 0.89% (n = 100,000); inhibition, %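 (about 17 µg/mL by stock and volumes)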;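 active means above 50% in both replicates, above 80% if mildly self-fluorescent; inactive means the rest, strongly fluorescent compounds included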;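 further: 0% = mean of negative and 100% = mean of positive controls; one replicate is shown; some compounds called inactive have numbers as strong as hits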
# PV pol inh intensity: recorded beside PV pol inh, whose call it bears; % elongation; measured here: total intensity read-out; formula for this scale not given here;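 total fluorescence in place of polarization; lower means less elongation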
# * hit, by the source's call; i = inactive; / = not tested or not shown; & = joins results of further samples.
mol,PV pol inh,PV pol inh intensity,Mtb MenB inh,MbtI inh
CONC(=O)Nc1ccc(C)cc1,104.0,100.0,-23.0,-8.7
CC(C)N(CCc1ccncc1)C(=S)NCC1CCCO1 (configuration not stated),102.0,98.0,3.9,7.8
COC(=O)c1sccc1NC(=O)c1nc(-c2ccc(Cl)cc2)n2c1CCCCC2,102.0,101.0,4.4,17.0
CCOc1ccc(NC(=O)COc2ncnc3ccccc23)cc1,101.0,104.0,8.7,1.7
CCOC(=O)/C=C(\C)N1CCN(c2ccccc2)CC1,103.0,112.0,6.8,-5.2
C/C(=N/NC(=O)c1ccoc1C)c1ccc(NC(=O)c2ccco2)cc1,100.0,102.0,-32.2,27.6
CSc1cccc(NC(=O)CC#N)c1,99.0,102.0,-0.2,-1.9
CCOC(=O)CC(Sc1ccccc1N)c1cc(OC)c(OC)c(OC)c1 (configuration not stated),111.0,120.0,-18.1,-0.8
CCN(CC(=O)NCc1cccs1)C(=O)c1cc2c(s1)CCCC2,99.0,92.0,-25.6,-2.3
COc1ccc2c(c1)c1c(c(=O)n(-c3ccc(C)cc3)c(=O)n1CC(=O)NCC1CCCO1)n2C (configuration not stated),102.0,103.0,-10.4,i
COc1ccc(S(=O)(=O)N(CCC#N)CCN2CCOCC2)cc1Br,98.0,92.0,-6.2,-19.3
CCOC(=O)c1ccccc1NC1OC(=O)c2ccccc21 (configuration not stated),102.0,103.0,-7.3,115.3
COC(CNC(=O)c1ccc2c(c1)N(Cc1ccccc1F)C(=O)c1ccccc1S2=O)OC (configuration not stated),98.0,92.0,-5.4,3.0
CC(C)(C)c1cc2ncnc(NC3CCN(Cc4ccccc4)CC3)c2s1,94.0,102.0,-1.9,2.4
C=CCNC(=O)c1cc2c(=O)n3ccccc3nc2n(CCC)c1=N,100.0,104.0,-108.7,i
C/C=C/c1ccc(OC)c(OC(C)=O)c1,99.0,103.0,25.0,-7.1
CCCN(CCC)C(=O)Cn1c(=O)oc2cc(S(=O)(=O)N3CC(C)CC(C)C3)ccc21 (configuration not stated),100.0,99.0,-17.4,14.5
Cc1ccc(S(=O)(=O)Nc2ccccc2-c2nnc(-c3ccc(Cl)cc3)o2)cc1,103.0,98.0,-3.8,-0.1
N#Cc1ccccc1CSC1=NCCS1,102.0,97.0,/,1.0
C=C(C)CC1C(=O)N(S(=O)(=O)c2ccc(Cl)cc2)N=C1C (configuration not stated),102.0,103.0,-16.3,0.4

mol,PV pol inh,PV pol inh intensity,Mtb MenB inh,MbtI inh
CC(=O)Nc1ccc(Cl)cc1C(=O)O,105.0,105.0,-5.4,/
Cc1cc(C)cc(C(=O)Nn2cnnc2)c1,100.0,106.0,4.8,-3.9
Cn1c(CCN)nc2ccccc21,101.0,96.0,-1.2,-1.2
CC1CCN(C(=O)c2cccc(-c3nnc(-c4ccccc4)o3)c2)CC1,101.0,106.0,-2.1,-26.5
CC(c1ccco1)N(C(=O)c1ccccc1F)c1ccccn1 (configuration not stated),101.0,104.0,/,6.0
COc1nc(N(C)C)nc(N(C#N)CN2C(=O)c3ccccc3S2(=O)=O)n1,104.0,101.0,-9.5,-14.2
CCC(=O)Nc1ccccc1C(=O)N1CCCC1,103.0,99.0,-34.2,-12.3
COc1ccc(N2CCN(C(=O)Cn3c(Cl)nc4c3c(=O)n(C)c(=O)n4C)CC2)cc1,105.0,109.0,-21.5,1.5
CC1=CC(C)=NC2=NN=C(NC(=O)Nc3ccc(Cl)c(Cl)c3)C12 (configuration not stated),105.0,111.0,5.7,/
CC(=O)Oc1cc2oc(=O)cc(C)c2cc1Cl,102.0,105.0,/,-239.8
O=C(CCCN1C(=O)CSc2ncccc21)NC1CCCC1,105.0,103.0,-14.3,-1.8
CCC(Sc1nc2c(c(=O)[nH]1)CCC2)C(=O)Nc1ccccc1F (configuration not stated),102.0,105.0,-14.2,13.8
CC(=O)Oc1cn(C(C)C)c2nc(C)n3c(=O)c4ccccc4nc3c12,91.0,90.0,8.8,0.2
CC(=O)N1c2ccccc2NC(=O)C1CC(=O)Nc1ccccc1Cl (configuration not stated),98.0,107.0,-1.0,-19.1
O=C(COC(=O)C1CCCCC1)Nc1ncc(C(F)(F)F)cc1Cl,103.0,106.0,/,1.5
COC(=O)c1ccc(Cn2c(Cc3ccccc3)nc3ccccc32)o1,108.0,101.0,-4.8,-5.0
O=C(CN1CCOc2ccccc21)NC1CCCCCC1,102.0,103.0,-15.8,10.1
CSc1ccccc1NC(=O)Nc1ccccc1,99.0,103.0,-23.5,-13.8
CN1C(=O)c2ccc(NC3=NS(=O)(=O)c4ccccc43)cc2C1=O,102.0,101.0,-0.7,-10.6
COc1ccc(C(=O)c2cnc3cc4c(cc3c2N2CCCCC2)OCO4)cc1,99.0,103.0,5.6,0.9

mol,PV pol inh,PV pol inh intensity,Mtb MenB inh,MbtI inh
Cc1cccc(N2CN(Cc3ccco3)CNC2=S)c1,100.0,106.0,-3.0,-3.0
CCOC(=O)NCc1cc(C(=O)O)ccc1O,101.0,102.0,4.6,-13.2
CN1CCN(/N=C/c2nc(-c3ccccc3)n3ccccc23)CC1,103.0,95.0,-77.7,2.7
CCCCNC(=O)c1cc2cc(CC)ccc2[nH]1,102.0,98.0,8.3,-173.9
COCc1cc(C)nc2sc(C(=O)OC)c(N)c12,97.0,99.0,-7.6,/
CC(C)(C)OC(=O)/N=C(\N)n1cccn1,101.0,103.0,11.0,-0.1
C=CCN1C(=O)C2(NC(=O)c3ccccc3N2)c2ccccc21 (configuration not stated),101.0,103.0,16.0,40.9
Cc1cc(C)c2c(n1)sc1c(SCC(=O)c3ccc(Br)cc3)ncnc12,100.0,102.0,0.6,-5.4
CCC(=O)Nc1cc(-c2nc3cc(OC)ccc3o2)ccc1C,102.0,100.0,0.7,16.1
COc1cccc(NC(=O)Cn2nc(-c3ccccc3)ccc2=O)c1,103.0,101.0,-17.2,-9.7
O=C(O)CCNS(=O)(=O)c1ccc(Br)cc1,100.0,105.0,-13.0,-12.1
O=C(NC1CCCc2ccccc21)C1=NN(c2ccccc2)C(=O)CC1 (configuration not stated),108.0,110.0,-15.1,-0.1
CCc1nc(N)nc(N)c1-c1ccc(Cl)cc1,101.0&100.0,103.0&99.0,2.6&-1.6,-8.9&-16.6
CCN(CC)C(=O)c1cn(CCC#N)nc1-c1ccc2ccccc2c1,101.0,104.0,8.9,3.4
CNC(=O)c1[nH]nc2c1CCc1ccccc1-2,100.0,102.0,-10.5,120.8
O=C1CN(c2ccccc2)C(=S)N1/N=C/c1ccc(F)cc1,100.0,105.0,-19.2,/
O=C(O)c1ccccc1C(=O)c1cc(Cl)ccc1Cl,103.0,104.0,/,-4.0
Cc1cc(C)cc(C(=O)Nc2ncn[nH]2)c1,105.0,108.0,-16.4,/
O=c1cc(O)nc(SCc2c(F)cccc2Cl)n1C1CCCC1,101.0,98.0,-56.8,0.8
CCCNC(=O)c1ccc(SC)cc1OC,101.0,104.0,-12.1,-11.3

# Record cards (already shown). Order of values: PV pol inh, PV pol inh intensity, Mtb MenB inh, MbtI inh
# Entry for CCc1nc(N)nc(N)c1-c1ccc(Cl)cc1 → 101.0&100.0, 103.0&99.0, 2.6&-1.6, -8.9&-16.6
# Entry for CSc1ccccc1NC(=O)Nc1ccccc1 → 99.0, 103.0, -23.5, -13.8
# Entry for CCCNC(=O)c1ccc(SC)cc1OC → 101.0, 104.0, -12.1, -11.3
# Entry for O=C(O)c1ccccc1C(=O)c1cc(Cl)ccc1Cl → 103.0, 104.0, /, -4.0

# Returning to the listing, repeating the 3 entries before the break.
mol,PV pol inh,PV pol inh intensity,Mtb MenB inh,MbtI inh
Cc1cc(C)cc(C(=O)Nc2ncn[nH]2)c1,105.0,108.0,-16.4,/
O=c1cc(O)nc(SCc2c(F)cccc2Cl)n1C1CCCC1,101.0,98.0,-56.8,0.8
CCCNC(=O)c1ccc(SC)cc1OC,101.0,104.0,-12.1,-11.3
O=S(=O)(c1ccc(S(=O)(=O)C(F)(F)F)cc1)C(F)(F)F,100.0,103.0,4.2,-4.3
Cc1nc2ccccc2n(CC(=O)Nc2cc(Cl)cc(Cl)c2)c1=O,100.0,109.0,/,-1.0
CC(=O)N1c2ccc(S(=O)(=O)N3CCCC3C(=O)N3CCN(c4ccccc4)CC3)cc2CC1C (configuration not stated),105.0,101.0,-26.4,-15.3
CC1(C)c2cc(Cl)ccc2-n2c1cc(O)c(-c1ccccc1)c2=O,103.0,105.0,-7.4,-23.2
Oc1cc2[nH]c3ccccc3c2cc1CN1CCOCC1,105.0,106.0,-9.1,-10.4
Cc1cc(OC(C)C)c2c3c(c(=O)oc2c1)CCCC3,100.0,101.0,/,-6.2
COc1ccc(N2CCN(C(C)C(=O)N3CCCC3)CC2)cc1 (configuration not stated),97.0,100.0,14.0,-0.8
COc1ccc2[nH]cc(S(=O)(=O)c3ccccc3)c(=O)c2c1,99.0,102.0,-31.2,3.0
CCNc1nc(Oc2ccc(=O)[nH]n2)nc(N2CCOCC2)n1,100.0,103.0,2.2,9.8
CN(c1ncnc2c1nc1n2CCCCC1)C1CCCCC1,103.0,102.0,-18.1,-6.2
Cc1ccc(C(=O)OCC(=O)Nc2ccccc2C)cc1C,100.0,104.0,/,-1.4
Cc1[nH]c(=S)[nH]c1C12CC3CC(CC(C3)C1)C2,103.0,108.0,-15.1,9.6
CCC(=O)NC(c1ccccc1)c1nc2ccccc2[nH]1 (configuration not stated),104.0,105.0,-8.5,-3.2
Cc1cccc(CC(=O)NCc2ccc3[nH]c(C)cc3c2)c1,103.0,103.0,-21.5,-0.5
CC(C)(C)c1nc2ccc(N)cc2[nH]1,93.0,93.0,-11.5,34.6
Cc1nc(N2CCCCC2)sc1C1Sc2ccccc2NC1=O (configuration not stated),98.0,104.0,-4.5,2.6
CC(=O)NCCOc1c(C)cccc1C,103.0,105.0,2.6,/
O=C(Nc1nn2cnnc2s1)c1ccc(S(=O)(=O)N2CCc3ccccc3C2)cc1,97.0,101.0,7.7,-7.0
CNC(=O)CCc1nc(-c2ccccc2)no1,98.0,111.0,-14.1,-15.2
CC1(C)Cc2c(ccc3ccccc23)C(=NCCC(=O)O)N1,102.0,107.0,-10.2,103.7

mol,PV pol inh,PV pol inh intensity,Mtb MenB inh,MbtI inh
C=CCn1c(O)c(N=NC(=O)OC)c2cc(Br)ccc21,101.0,101.0,-23.3,19.8
COc1ccc(CNC(=O)C(C)Sc2nc(C)c(C)n2CC(C)C)cc1 (configuration not stated),105.0,112.0,-1.9,-0.7
N#CC1(NC(=O)CSc2nc3ccccc3o2)CCCCC1,103.0,97.0,-41.9,13.8
O=C(O)CCC(=O)N1CCOCC1,101.0,96.0,/,-7.2
Nc1ccccc1NS(=O)(=O)c1cccs1,98.0,111.0,-12.6,13.1
O=C(CN1C(=O)/C(=C\c2ccc(F)cc2)Oc2ccccc21)NCC1CCCO1 (configuration not stated),100.0,100.0,-18.3,27.2
CCOC(=O)c1c(NC(=O)OC)sc2c1CCCC2,99.0,107.0,-7.8,/
COc1cc2c(cc1OC)CN(C(=O)C1CCCN(C(=O)c3ccc(Cl)cc3)C1)CC2 (configuration not stated),102.0,95.0,-44.6,-2.9
S=C1CC(c2ccccc2)Sc2ccccc2N1 (configuration not stated),111.0,113.0,-19.4,-7.1
Brc1ccc(-c2nnc(SCCC3OCCCO3)o2)cc1,102.0,101.0,-7.2,-4.0
CCn1c(=O)[nH]c2ccc(S(=O)(=O)N(C)C)cc21,103.0,99.0,18.7,1.1
CCOc1ccc(CCNC(=O)c2ccc3c(c2)NC(=O)C2CCCN32)cc1OCC (configuration not stated),105.0,106.0,-6.3,4.8
Cc1occc1C(=O)NN=C1c2ccccc2-c2ccccc21,102.0,101.0,-25.2,3.4
CN(CC1COc2ccccc2O1)C(=O)NC12CC3CC(CC(C3)C1)C2 (configuration not stated),103.0,110.0,13.0,-3.2
CC(C)N=C1NC(=NC(C)C)c2ccccc21,109.0,109.0,9.4,46.3
CCOc1cc2[nH]c(=S)n(CCCN3CCC(C)CC3)c(=O)c2cc1OCC,99.0,100.0,4.5,-8.1
C=C(C)Cn1c(CCCNC(=O)c2ccccc2OC)nc2ccccc21,102.0,95.0,-22.4,4.2
CC(Sc1nnc(-c2cccs2)n1C1CC1)c1nnc(-c2cccs2)o1 (configuration not stated),106.0,112.0,-6.3,-8.7
O=C(O)C1CCCN1C(=O)c1ccco1 (configuration not stated),102.0,100.0,-35.0,2.1
COc1ccc(C(=O)COc2coc(CN3CCc4ccccc4C3)cc2=O)cc1,104.0,109.0,-42.0,5.5

mol,PV pol inh,PV pol inh intensity,Mtb MenB inh,MbtI inh
COc1cccc(CNC(=O)CCCN2C(=O)c3cccnc3Oc3ccc(Cl)cc32)c1,100.0,103.0,-8.4,-20.6
Cc1ccsc1C(O)c1nnc(-c2ccccc2)o1 (configuration not stated),99.0,103.0,6.9,-11.0
Cc1ccccc1Nc1nc(N)nc(COC(=O)Cc2cccs2)n1,108.0,109.0,-5.9,5.2
CSc1cccc(NC(=O)/C=C/c2ccc(C(C)C)cc2)c1,110.0,111.0,-54.3,-6.4
